Screening results (PubChem)
Cruzain inh Det = cruzain (T. cruzi) inhibition with detergent; purified cruzain, Z-FR-AMC fluorescence, 0.01% Triton; actives 0.43% (n = 200,000); P25779; Potency, µM, for the others: max response, negative = inhibition, usual class: inhibitors; active = well fitted curve in the direction sought with a large enough effect; inconclusive = small, poorly fitted or top-dose-only effect, or another doubt; inactive = no such curve, though single readings can be large; an effect the other way counts as inactive or inconclusive;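 note: plate controls were neutral wells for no effect and buffer without enzyme for full effect; nearly all actives have a fitted effect of over 40% in size; top concentration of the series not given in the record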
Target sequence (P25779 123-467 limits assumed): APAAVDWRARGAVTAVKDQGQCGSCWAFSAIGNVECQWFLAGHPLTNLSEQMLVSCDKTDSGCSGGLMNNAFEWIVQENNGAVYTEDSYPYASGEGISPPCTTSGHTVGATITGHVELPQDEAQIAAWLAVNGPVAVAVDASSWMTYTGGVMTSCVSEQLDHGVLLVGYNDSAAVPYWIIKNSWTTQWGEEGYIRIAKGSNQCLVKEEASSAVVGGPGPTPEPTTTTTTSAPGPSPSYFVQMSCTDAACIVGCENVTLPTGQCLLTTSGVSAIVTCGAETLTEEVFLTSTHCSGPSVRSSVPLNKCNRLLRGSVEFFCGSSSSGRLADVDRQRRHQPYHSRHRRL
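Detergent-containing arm of a paired screen for aggregation-based inhibition: 0.01% Triton X-100 present. Cruzain at 1.5 nM cleaved 2 uM Z-FR-AMC at pH 5.5 with 5 mM DTT; AMC fluorescence gain over 60 s measured activity.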
Cruzain noTriton = inhibitors of Trypanosoma cruzi cruzain without detergent; purified cruzain, Z-FR-AMC fluorescence, no detergent; Potency, µM, for the others: max response, negative = inhibition, most hits filed as inhibitors; actives 2.3% (n = 200,000); active = well fitted curve in the direction sought with a large enough effect; inconclusive = small, poorly fitted or top-dose-only effect, or another doubt; inactive = no such curve, though single readings can be large; an effect the other way counts as inactive or inconclusive;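 note: plate controls were enzyme without inhibitor for no effect and buffer without enzyme for full effect; nearly all actives have a fitted effect of over 40% in size; top concentration of the series not given in the record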
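Detergent-free condition (0.00005% Triton X-100) in acetate buffer pH 5.5 with DTT. 1.5 nM enzyme and compound were pre-mixed 15 min, then 2 uM Z-FR-AMC substrate added; reaction progress from fluorescence change between first and third reads (60 s).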
NS1 inh = influenza NS1 inhibition | S. cerevisiae slowed by influenza A NS1, growth recovery by OD600 | Potency, µM (doses to about 46.1 µM), for the others: at the highest dose activity, positive = more growth | actives 0.4% (n = 270,000) | AID 2326; note: actives are rising curves; nearly all actives have a fitted effect of over 50% in size
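OD600 was taken as the measure of yeast growth restored by compound in an NS1-expressing S. cerevisiae strain. Cells had been washed out of glucose medium and diluted 1:100 into galactose -URA medium, pH 6.0.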
MARV entry inh = blocks Marburg virus binding to or entry into cells; actives 1.8% (n = 300,000); Marburg virus pseudotyped entry inhibition, cell reporter; control for the full effect not named in the record; about a third of the inactives were read at about 46 µM; Potency, µM (highest dose often 37.8 µM), without a hit: at the top dose activity change, negative = inhibition, actives largely listed as inhibitors; active = well fitted inhibition curve with a large enough effect; inconclusive = small, poorly fitted or top-dose-only effect, or effect the other way; inactive = flat fitted curve, though single readings scatter; tested in HEK293 cells; about a fifth of its hits are not listed in these tables; note: % is set by controls: 0 for no effect and ±100 for the full control effect; luciferase read-out
2A StopGo = lowers the luciferase signal of an FMDV 2A StopGo reporter; human cells with a luciferase reporter of 2A StopGo recoding; control for the full effect not named in the record; actives 1.2% (n = 410,000); AID 1159524; Potency, µM (highest dose often 57.9 µM), inactives show at the highest dose signal change, negative = less light; active = well fitted falling curve with a large enough effect; inconclusive = small, poorly fitted or top-dose-only effect; inactive = no such curve, though single readings can be large or run the other way; tested in HEK293T cells; note: % is set by controls: 0 for no effect and ±100 for the full control effect; nearly all actives have a fitted effect of over 45% in size; luciferase light after 4 h
RE007 growth inh = less growth of the S. pombe RE007 Vpr strain; S. pombe RE007 Vpr strain, BacTiter-Glo ATP luminescence, 24 h; control for the full effect not named in the record; Potency, µM (titrated, usually from 92.2 µM), without a hit: at the highest dose activity change, negative = less growth; actives 0.21% (n = 360,000); active = well fitted falling curve with a large enough effect; inconclusive = small, poorly fitted or top-dose-only effect; inactive = no such curve, though single readings can be large or run the other way;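 note: % is set by controls: 0 for no effect and ±100 for the full control effect; nearly all actives have a fitted effect of over 50% in size; the assay follows cell death caused by Vpr and the record does not say whether a fall means rescue or toxicity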
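Fission yeast strain RE007, carrying one chromosomally integrated HIV-1 vpr copy, was seeded at OD 0.01 in PMG+AL medium with 23 nL pinned compound. After 24 h at 30 °C and 99% humidity, viability was read by BacTiter-Glo luminescence.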
LASV entry inh = blocks Lassa virus binding to or entry into cells; Potency, µM (highest dose often 37.9 µM), for inactives: at the highest dose activity change, negative = inhibition, most hits filed as inhibitors; AID 540256; Lassa virus pseudotype entry inhibition, cell reporter; control for the full effect not named in the record; actives 1.2% (n = 300,000); active means well fitted inhibition curve with a large enough effect; inconclusive means small, poorly fitted or top-dose-only effect, or effect the other way; inactive means flat fitted curve, though single readings scatter; tested in HEK293 cells; note: % is set by controls: 0 for no effect and ±100 for the full control effect; nearly all actives have a fitted effect of over 50% in size; luciferase read-out
SARS PLP yeast = SARS-CoV PLP inhibition in yeast. Potency, µM (top dose mostly 32.9 µM), for inactives: top-dose activity, positive = growth rescue. actives 0.19% (n = 330,000). S. cerevisiae expressing SARS-CoV PLpro, growth rescue; control for the full effect not named in the record. AID 485353; note: 0% is about no effect; nearly all actives have a fitted effect of over 55% in size; growth read by luminescence after 48 h
* marks the source's active call; other numbers are inactive results; ? = inconclusive; / = no result given; [ ] = remark or other dose. Unless noted, calls come from the whole dose curve; as a rule, active means well fitted rising curve with a large enough effect; inconclusive means small, poorly fitted or top-dose-only effect; inactive means no such curve, though single readings can be large or run the other way. Potency is the fitted concentration of half-maximal effect.

Each structure is followed by: Cruzain inh Det	Cruzain noTriton	NS1 inh	MARV entry inh	2A StopGo	RE007 growth inh	LASV entry inh	SARS PLP yeast
1: COc1ccccc1C(=O)NCCC(=O)Nc1ccc(OC(F)(F)F)cc1
  /	/	22%	?	-14%	-2%	/	1%
2: COCCNC(=O)Cn1c(=O)c2cccn2c2ccc(F)cc21
  -2.5%	10%	/	/	-8%	/	-37%[46.1 µM]	/
3: O=C(c1cccc(Br)c1)N1CCN(c2ccc(N3CCOCC3)nn2)CC1
  /	/	/	7%	-13%	-11%	1%	-1%
4: CC(=O)N1CCN(C(=O)c2ccc(NS(=O)(=O)c3ccc4[nH]c(=O)[nH]c4c3)cc2)CC1
  /	/	/	13%	-12%	5%	0%	0%
5: c1ccc2c(c1)SCc1nnc(-c3ccncc3)n1-2
  /	/	2%	-1%	-1%	3%	12%	0%
6: COCCN(C(=O)CSc1nnc(-c2ccc(C(C)(C)C)cc2)n1N)c1c(N)n(CC(C)C)c(=O)[nH]c1=O
  /	/	/	17%[46.1 µM]	-2%	-1%	-7%	3%
7: COC(=O)c1ccc(Cn2nnc3c(=O)[nH]c(C4CCN(S(=O)(=O)c5ccc(F)cc5)CC4)nc32)cc1
  /	/	-1%	/	-7%	2%	/	2%
8: COc1ccc(-c2nc(C)c(CCNC(=O)C(=O)Nc3cccc(F)c3)s2)cc1OC
  -2.2%	-14%	/	/	-7%	/	1%[46.1 µM]	/
9: Cc1ccc2c(c1)-c1c(cnn1CC(=O)N(Cc1ccco1)C1CCCCC1)CO2
  -8.9%	5%	-18%	1%	?	1%	/	-10%
10: CC(C)(C)c1cc(N/C=C\c2nnnn2-c2ccc(Br)cc2)no1
  -5.9%	-17%	10%	-1%	-4%	-1%	-13%	11%
11: O=C(COc1ccc(F)cc1)Nc1ccc(-n2cnnn2)cc1
  0.1%	5%	2%	-5%	-8%	9%	-4%	-3%
12: Cc1ccc(Cl)c(OCC(=O)Nc2cc(S(=O)(=O)N3CCOCC3)ccc2N2CCCC2)c1
  /	/	10%	?	-11%	-3%	-7%	8%
13: O=C(NCc1ccc2c(c1)OCO2)c1cc([N+](=O)[O-])ccc1N1CCCCC1
  -13%	-8%	-2%	-29%	1%	16%	?	25%
14: Cc1cccc(-c2nc(C)c(CCNC(=O)C(=O)Nc3cccc(Cl)c3C)s2)c1
  1.2%	-16%	/	/	7%	/	3%[46.1 µM]	/
15: COc1cccc(C2[C@H](C)C3(CCN2C)OCCO3)c1 (some centres undefined)
  -3.7%	2%	-5%	?	-5%	3%	19%	15%
16: O=C(COC(=O)c1cccc(OC(F)F)c1)NC(=O)NC1CCCCC1
  /	/	/	20%	-10%	-1%	-17%	0%
17: CCOc1ccc(NC(=O)C2CCCN(S(=O)(=O)c3ccc(-n4cnnn4)cc3)C2)cc1 (centres undefined)
  /	/	5%	-18%[46.1 µM]	-1%	10%	/	-1%
18: CCC(=O)Nc1ccc(S(=O)(=O)Nc2c(NC)c3ccccc3oc2=O)cc1
  /	/	9%	-29%[46.1 µM]	-28%	-5%	-12%[46.1 µM]	-1%
19: COc1ccc(Cc2[nH]n3c(=O)cc(C(C)C)nc3c2-c2ccccc2)cc1
  /	/	0%	13µM*	?	-21%	?	1%
20: Cc1ccc2c(c1)N=C(c1ccc(Cl)cc1)CO2
  0.2%	4%	-12%	?	5%	-7%	-42%	-9%
21: O=C(O)Cc1csc(-c2ccc(F)cc2)n1
  /	/	17%	?	5%	15%	?	-4%
22: Cc1ccc(S(=O)(=O)N2CCN(C(=O)CSc3ncn[nH]3)CC2)c(C)c1
  /	/	/	-16%	?	-10%	?	3%
23: CCN(CC)CCNC(=O)Cc1c(C(=O)O)n(C)c2ccccc12
  1.6%	0%	2%	20%	-6%	10%	13%	2%
24: Cc1nc2sc(C(c3cccc(F)c3)N3CCC(C)CC3)c(O)n2n1 (centres undefined)
  7.4%	19%	-14%	3%	20%	-27%	-19%	3%
25: CCn1c(C)nc2cc(C(=O)N/N=C(\C)c3ccc(OC)cc3O)ccc21
  /	/	/	-23%[46.1 µM]	-2%	-8%	?	?
26: Nc1cccc(C(=O)Nc2ccccc2Cl)c1
  6.0%	1%	-13%	14%	51%[activator]	-16%	13%	-3%
27: Cc1ccc(S(=O)(=O)CCC(=O)Nc2nnc(-c3ccccc3S(C)(=O)=O)o2)cc1
  /	/	/	6%	-5%	8%	-17%	-6%
28: CC1CN(CCCOc2ccccc2-c2ccccc2)CC(C)O1 (centres undefined)
  /	/	-6%	-10%[46.1 µM]	?	-18%	-27%	0%
29: Nc1nc(SCc2ccc(F)cc2)n[nH]1
  /	/	6%	/	-6%	2%	/	5%
30: Cn1c(N)c(C(=O)COC(=O)c2ccc(Cl)c(S(=O)(=O)N3CCCCC3)c2)c(=O)n(C)c1=O
  -7.2%	?	44%	21%	0%	6%	-5%	1%
31: Cc1oc(-c2ccc(Cl)cc2)nc1Cn1c(=O)cc(C)c2c(C)nn(-c3ccccc3)c21
  -2.4%	5%	/	/	-9%	/	-1%[46.1 µM]	/
32: Cc1ccc(-c2noc(CSc3nnnn3C3CCCCC3)n2)cc1
  -6.4%	5%	-80%	/	0%	-18%	/	-15%
33: O=C(CSc1ccccc1F)NC1CCS(=O)(=O)C1 (centres undefined)
  /	/	-4%	19%[46.1 µM]	3%	2%	?	1%
34: COc1ccc(Cl)cc1-c1n[nH]c(=S)n1Cc1ccccc1
  /	/	?	-20%[46.1 µM]	-12%	-9%	19%[46.1 µM]	0%
35: CCOC(=O)c1ccc(N=Cc2nc3ccccc3n2C)cc1
  -1.1%	4%	-13%	-1%	3%	10%	11%	-8%
36: O/N=C(\c1ccccc1)c1nccc2ccccc12
  /	/	5%	/	-11%	-10%	/	3%
37: Cc1ccc2c(c1)N(CC(=O)NCc1cccs1)C(=O)CO2
  -0.9%	2%	-3%	8%	1%	3%	14%[14.3 µM]	7%
38: COC(=O)c1c(C(=O)OC)c(-c2ccc(C)cc2)n2c1CS(=O)(=O)C2
  2.4%	4%	5%	-5%	-8%	11%	8%	-11%
39: CNC(=S)NNC(=O)Cn1ccc(C)n1
  3.2%	-5%	8%	7%	-4%	4%	34%[14.3 µM]	/
40: CCOC(=O)CCc1c(C)c(C#N)c2nc3ccccc3n2c1-n1cnc2ccccc21
  7.7%	-4%	-1%	12%	6%	6%	6%	-2%
41: CCOc1cc(Br)cc(/C=N/NC(=O)c2cccnc2)c1O
  /	/	-27%	?	?	7%	?	?
42: CN1CCc2c(sc(NC(=O)c3ccc(S(=O)(=O)N4CCCC4)cc3)c2C(N)=O)C1
  /	/	19%	/	-2%	-1%	/	1%
43: O=C(NCCCN1CCCC1=O)C1CCN(S(=O)(=O)N2CCOCC2)CC1
  3.3%	1%	4%	-5%	-12%	8%	?	5%
44: O=C(Nc1ccccc1Cl)N1CCn2c(nc3ccccc32)C1
  -12%	-27%	-70%	7%	-13%	15%	5%	-2%
45: CCOc1ccccc1NC(=O)CSc1ncc(S(=O)(=O)c2ccc(C(C)(C)C)cc2)c(=O)[nH]1
  28µM*	?	/	16%[46.1 µM]	-3%	/	/	/
46: COc1ccccc1CNC(=O)C(=O)NCC(c1cccnc1)N1CCN(c2ccc(F)cc2)CC1 (centres undefined)
  -9.7%	?	/	/	-10%	/	?	/
47: COC(=O)c1cn(NC(=O)C2CCCO2)c(=O)c2ccccc12 (centres undefined)
  0.2%	1%	?	4%	7%	1%	8%	11%
48: Cc1ccc(NC2CCCN(C(=O)c3cc4ncccn4n3)C2)cc1C (centres undefined)
  /	/	4%	/	-13%	2%	/	-4%
49: Cc1cc(C)cc(NC(=O)C2CCCC2)c1
  0.2%	14%	-3%	-5%	66%[activator]	-2%	?	-11%
50: O=C(CCCSc1nc2ccccc2[nH]1)NCc1ccco1
  0.3%	-6%	-4%	9%	-17%	7%	1%	3%

Next section:
Each structure is followed by: Cruzain inh Det	Cruzain noTriton	NS1 inh	MARV entry inh	2A StopGo	RE007 growth inh	LASV entry inh	SARS PLP yeast
51: C=CCNc1nnc(SC2CC(=O)N(c3ccc(OCCC)cc3)C2=O)s1 (centres undefined)
  3.6%	-14%	-247%	?	-23%	11µM*	0%	-43%
52: CSc1ccc(C2C(C#N)=C(N)Oc3c2ccc(=O)c2c(C)oc(C)c32)cc1 (centres undefined)
  ?	-7%	?	?	0%	-20%	-29%	2%
53: C(=N\Nc1ccccn1)/c1cccnc1
  /	/	5%	/	35%[activator]	-16%	/	1%
54: CC(/C=N/NC(=O)Cn1cnc2c1c(=O)n(C)c(=O)n2C)=C\c1ccco1
  /	/	2%	9%	-11%	-19%	-3%	2%
55: COc1ccc(C(=O)COC(=O)/C=C/c2ccc(S(=O)(=O)Nc3cccc(S(N)(=O)=O)c3)cc2)cc1
  /	/	1%	/	?	3%	/	0%
56: O=C(Nc1ccc(N2CCOCC2)cc1N1CCOCC1)c1ccc(Cl)cc1
  /	/	-5%	-6%	-27%	-7%	-13%	-6%
57: CC1(C)Cc2c(C#N)c(N3CCN(C(=O)c4ccco4)CC3)nc(-c3ccco3)c2CS1
  28µM*	16µM*	7.9µM*	-11%	-26%	-1%	-9%	22%
58: COc1cccc(CNC(=O)Cn2cccc2C(=O)c2ccccc2)c1
  -5.0%	0%	/	6%[46.1 µM]	14%	/	12%[46.1 µM]	/
59: O=C(CCNS(=O)(=O)c1ccc(Br)cc1)NCc1ccco1
  /	/	/	?	-2%	0%	-5%	-5%
